High-throughput results as filed in PubChem BioAssay.
PMP22 txn – Cell-based coincidence reporter assay to measure PMP22 gene transcription in S16 Pmp22-F2sN cells - Primary screen; S16 Pmp22-F2sN Schwann cells (luciferase reporters placed in the Pmp22 gene), FLuc/NLuc coincidence luminescence, 24 h; Potency, µM (top dose mostly 57.5 µM), without a hit: at the top dose activity change, negative = inhibition, actives largely listed as inhibitors; actives 2% (n = 43,000); AID 1508649, 2021; active = clear falling dose curves in both reporters; inconclusive = both reporters move, but less clearly or upward; inactive = either reporter flat; the % is the NLuc reporter signal; note: % is set by controls: 0 for no effect and ±100 for the full control effect; some results filed as inactive show a strong effect at the top dose
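Reporter cells (S16 Pmp22-F2sN, 500–1,000 per well) exposed to compounds for 24 h, 37C, 5% CO2; lysis with FLuc read after 10 min, then Stop&Glo and NLuc read after 10 min.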
HTT prom inh – Primary qHTS for Identification of Small Molecule Inhibitors of Huntingtin Promoter Activity. HEK293 HTT promoter firefly luciferase reporter (activity 0% = vehicle and -100% = no light), 24 h. AID 1508623, 2021. actives 0.93% (n = 48,000). Potency, µM (highest dose often 57.5 µM), without a hit: top-dose activity change, negative = inhibition, usual class: inhibitors; active = well fitted inhibition curve with a large enough effect; inconclusive = small, poorly fitted or top-dose-only effect; inactive = no such curve, though single readings can be large or run the other way; note: nearly all actives have a fitted effect of over 50% in size
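Firefly luciferase readout (Dual-Glo, 10 min RT) after 24 h, 37 °C compound exposure (final up to 57.5 uM) of HEK293 reporter cells cultured 24 h beforehand; PTC124 at 50 uM final as control inhibitor; activity scaled vehicle 0%, zero RLU -100%.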
The depositor's hits bear a star; ? = inconclusive; · = no result given; [ ] = another dose, or the depositor's remark. Potency is the fitted concentration of half-maximal effect.

SMILES | PMP22 txn | HTT prom inh
O=C(CN1C(=O)CC(c2ccco2)Sc2ccccc21)Nc1ccc(C(F)(F)F)cc1 (stereo not drawn) | -12% | -13%
Cc1ccc(C(=O)NCC(c2ccc3c(c2)OCO3)N2CCOCC2)cc1 (stereo not drawn) | 8% | -12%
Cc1cccc(NC(=O)N2CCN(C)c3ncccc32)c1C | -6% | -12%
Cc1cc(C)n(C(C)CC(=O)Nc2ccc(C)c(N(C)C)c2)n1 (stereo not drawn) | -47% | 3%
CCOC(=O)c1c(S(=O)(=O)N2CCCC(C(=O)Nc3cc(C)ccc3OC)C2)c(C)n(C)c1C (stereo not drawn) | -15% | -15%
CSc1ncc(Cl)c(C(=O)Nc2cc(C(F)(F)F)ccc2Cl)n1 | -1% | 1%
CCOC(=O)c1c(C)[nH]c(C)c1S(=O)(=O)N1CCCC(C(=O)Nc2ccc(C)cn2)C1 (stereo not drawn) | -15% | -14%
COC(=O)c1c(-c2ccc(Cl)cc2)noc1N1CCN(c2ccccc2F)CC1 | 6% | -2%
COc1ccc(N(Cc2ccccc2)C(=O)c2nc(SC)ncc2Cl)cc1 | ? | 20µM*
CCOc1ccccc1NC(=O)Cn1ncc2c([nH]c3ccccc32)c1=O | 12% | -9%
Cc1cc(C)cc(-n2c(SCC(=O)Nc3ccccc3)nc3c(oc4ccccc43)c2=O)c1 | -23% | -15%
CCOc1ccc2nc(NC(=O)c3cc(=O)c4cc(C)cc(C)c4o3)sc2c1 | 0% | 0%
Cc1ccc(S(=O)(=O)c2nc(-c3ccccc3)oc2N2CCN(c3ccccc3)CC2)cc1 | 10% | -12%
COCCCn1c(=N)c(C(=O)NCc2cccnc2)cc2c(=O)n3cc(C)ccc3nc21 | -20% | 2%
CCCOc1cccc(C(=O)Nc2cccc(-c3nc4ncccc4o3)c2C)c1 | ? | -5%
CCOC(=O)Cn1c(=O)oc2cc(S(=O)(=O)Nc3cc(OC)cc(OC)c3)ccc21 | 1% | -19%
O=S(=O)(c1ccc(Br)cc1)c1nnn2c1nc(NCCc1ccccc1)c1sccc12 | ? | 2%
CNC(=O)C1CCC(Cn2c(=O)c3sccc3n(CC(=O)NCc3ccc(C)cc3)c2=O)CC1 (stereo not drawn) | 14% | -14%
COc1ccc(C(=O)CC2(O)C(=O)N(Cc3ccccc3Cl)c3ccccc32)cc1 (stereo not drawn) | ? | ?
CCOc1ccc(CCNC(=O)CCn2c(=O)c3cccn3c3ccc(F)cc32)cc1 | ? | -9%
CC(=O)OCC(COC(C)=O)OC(C)=O | · | 7%
N#C/C(=C\c1ccccc1F)c1nc2ccccc2c(=O)[nH]1 | ? | -1%
CC(C)CCNC(=O)c1cccc(-n2cnc3cccnc32)c1 | -16% | -20%
CC[C@@H](CO)NCCN[C@@H](CC)CO | · | 12%
CC1CCC(Nc2nc3c(-c4ccc(Cl)cc4)nnn3c3ccccc23)CC1 (stereo not drawn) | 1% | -13%
COc1ccccc1C(=O)Nc1ccccc1C(=O)OCc1cc(=O)n2c(C)csc2n1 | 1% | -17%
COc1cccc(CSc2nc3n(n2)C(CC(C)C)C(C(=O)Nc2ccccc2OC)=C(C)N3)c1 (stereo not drawn) | ? | -7%
Cc1cc(Cl)ccc1OCC(=O)N1CCC(c2nc3ccccc3o2)CC1 | -15% | ?
CCC(C)NC(=O)c1ccc2c(c1)N(Cc1ccccc1)C(=O)c1ccccc1S2 (stereo not drawn) | -10% | -21%
COc1ccc(N2CCN(S(=O)(=O)CCNC(=O)c3ccc(OC(C)C)cc3)CC2)cc1 | 3% | ?
Cc1ccc(C)c(Cn2c(=O)n(Cc3ccc4c(c3)OCO4)c(=O)c3oc4ccccc4c32)c1 | -3% | -6%
O=C(CCn1c(=O)c2cccn2c2cccnc21)Nc1ccccc1Br | -13% | -3%
COc1ccc(-n2cc(C(=O)Nc3ccccc3C#N)c3ccccc3c2=O)cc1 | ? | -10%
COc1cccc(C(=O)Nc2ccc3nc(SCC(=O)N4CCOCC4)sc3c2)c1 | -8% | -16%
CCOC(=O)c1ccccc1NC(=O)Cn1c(=O)n(Cc2ccc(C(=O)NCc3ccc4c(c3)OCO4)cc2)c(=O)c2ccccc21 | ? | -12%
COCc1cc(C)nc2c1C(=O)NC(c1ccc(NC(C)=O)cc1)N2Cc1ccccc1 (stereo not drawn) | -2% | 0%
CCc1ccccc1NC(=O)c1sc(-n2nc(C)c(Cc3ccc4c(c3)OCO4)c2C)nc1C | -8% | -6%
CCOc1ccc(NC(=O)Cn2cc(C(=O)c3ccccc3)c(=O)c3cc4c(cc32)OCO4)cc1 | 32% | 7%
COc1ccc(Cl)cc1NC(=O)CSc1ccc2nnc(CCNS(=O)(=O)c3ccccc3)n2n1 | ? | -13%
CCOc1ccc(-n2nc(CO)c(C(=O)NCC(c3ccccc3)c3ccccc3)n2)cc1 | -18% | -1%
Cc1ccc(CSC2=NC(C)(C)Nc3ccccc32)c(C)c1 | ? | -22%
CCc1nonc1NC(=O)c1oc2ccc(F)cc2c1C | -4% | 37%[activator]
CCOc1ccc(OCC)c(NC(=O)c2cnn(-c3ccc(F)cc3)c2-n2cccc2)c1 | -1% | -33%
COc1ccc(S(=O)(=O)N2CCCCC2)cc1C(=O)NC1CCS(=O)(=O)C1 (stereo not drawn) | -23% | -15%
COc1cc(-c2nc3sccn3c2Nc2cccc(C)c2)ccc1O | ? | 14%
CC(=O)NCCNC(=O)CCCc1nnc2n(CC(C)C)c(=O)c3sccc3n12 | -18% | -14%
CCOC(=O)CSc1nc2ccc(NC(=O)c3ccc(C)cc3)cc2s1 | 3% | 15%
COc1ccc(NC(=O)Cn2c(=O)c3ccccc3n3nncc23)cc1Cl | -16% | -3%
CC(C)c1ccc(NC(=O)CSC2=Nc3ccccc3C3=NC(CCC(=O)NCc4ccco4)C(=O)N23)cc1 (stereo not drawn) | -68% | 11%
COCCn1c(=O)[nH]c2cc(C(=O)Nc3ccc(OC)cc3)ccc2c1=O | 1% | -9%
(more compounds)
SMILES | PMP22 txn | HTT prom inh
CCCCc1ccc(NS(=O)(=O)c2ccc(C)c(C(=O)N3CCN(c4cccc(C)c4C)CC3)c2)cc1 | · | -6%
COc1ccccc1N(CC(=O)Nc1ccc(C)c(Cl)c1)S(=O)(=O)c1ccc(C)cc1 | -14% | ?
COc1ccc(S(=O)(=O)NCCc2csc3nc(-c4ccc(Cl)cc4)nn23)cc1C | -35% | ?
COc1cc(-c2noc(-c3ccc(NCc4ccco4)c([N+](=O)[O-])c3)n2)cc(OC)c1OC | 3.2µM* | 0%
COc1ccc(CNC(=O)C2CCC(CNS(=O)(=O)c3cccs3)CC2)cc1 (stereo not drawn) | 2% | -10%
Cc1ccc(CNC(=O)c2c[nH]n3c(=O)c(Cc4ccc(Cl)cc4)c(C)nc23)cc1 | -24% | -18%
Cc1ccc(C)c(NC(=O)CN(C)S(=O)(=O)c2cccc3cccnc23)c1 | ? | -11%
COc1ccc(Br)cc1CNC(=O)c1cnc2sc(N3CCCC3)nn2c1=O | -9% | -1%
CN1C(C(=O)Nc2cccc(O)c2)=CC(c2cccs2)=NS1(=O)=O | -46% | ?
Cc1cccc(-n2c(SCC(=O)c3ccccc3)nnc2-c2ccc(Br)cc2)c1 | ? | -16%
CC(C)C(=O)Nc1nnc2n1CCS2 | -2% | -4%
CC(C)C[C@H](NC(=O)[C@@H](NC(=O)c1cccc(-c2ccccc2)n1)[C@@H](C)O)B(O)O | · | ?
CCOc1ccc2c(c1)c(=O)c(S(=O)(=O)c1ccccc1)cn2CC(=O)Nc1ccccc1OC | -8% | -20%
Cc1ccc2c(c1)N(CC(=O)NCCCN1CCCCC1C)C(=O)c1cccnc1O2 (stereo not drawn) | -23% | -4%
COc1ccc(C(=O)NCCn2cc(SCC(=O)Nc3ccccc3)c3ccccc32)cc1OC | ? | -21%
FC(F)(F)c1ccc(-c2noc(-c3ccccc3Br)n2)cc1 | ? | ?
COc1ccc(S(=O)(=O)N(CC(=O)Nc2ccccc2Br)Cc2ccccc2)cc1 | ? | ?
O=C(Nc1cccc(F)c1)C1CCCN(S(=O)(=O)c2cccc3cccnc23)C1 (stereo not drawn) | -21% | -18%
O=C1C2=C(Nc3ccccc3SC2c2c(F)cccc2Cl)c2ccccc21 (stereo not drawn) | ? | -21%
Cc1ccc(C)c(NC(=O)CCN2C(=O)c3ccccc3Sc3ncccc32)c1 | -21% | -14%
Cc1cc(Br)cc2c(C(=O)OCC(=O)c3ccccc3)cc(-c3ccccc3)nc12 | 8% | -8%
Cc1nc(SCC(=O)Nc2ccccc2Cl)cc(-c2ccccc2)n1 | -13% | -9%
CN(C(=O)c1ccc2c(c1)N(Cc1cccc(Cl)c1)C(=O)c1ccccc1S2=O)C1CCCCC1 (stereo not drawn) | ? | ?
Cc1ccc(CNC(=O)C2CCN(S(=O)(=O)c3ccc4c(c3)CCCN4C(=O)C3CCC3)CC2)cc1 | -27% | ?
CCCc1cc(=O)n2[nH]c(NCc3ccccc3OC)nc2n1 | -3% | -11%
CCOc1ccc(N2CC(NC(=O)/C=C\c3ccc4c(c3)OCO4)CC2=O)cc1 (stereo not drawn) | -4% | -10%
CCc1ccc(S(=O)(=O)c2nnn3c2nc(N2CCOCC2)c2sccc23)cc1 | ? | 1%
COc1cccc(/C=C/c2nc(C#N)c(N3CCN(C)CC3)o2)c1 | ? | -4%
CC(C)c1nc2ccc(C(=O)NCCCN3CCN(c4ccccc4)CC3)cc2o1 | ? | -28%
COc1ccc(CCNC(=O)c2c(C)nn(-c3ccc(F)cc3)c2-n2cccc2)cc1OC | ? | 20µM*
COc1ccccc1N1CCN(C(=O)c2cc3c(=O)oc4ccc(C)cc4c3s2)CC1 | 11% | -18%
COc1cccc(CNC(=O)CSc2ncc(S(=O)(=O)c3ccc(Br)cc3)c(=O)[nH]2)c1 | 0% | -5%
CCc1nn(CC(=O)Nc2c(C)cccc2C)c(=O)c2cc3sccc3n12 | -12% | 1%
Cc1ccc(-n2nc3c(=O)n(CCCC(=O)NCCc4ccccc4)nc(C)c3c2C)cc1 | -13% | -3%
Cc1cc2[nH]c(=O)c(=O)[nH]c2cc1S(=O)(=O)N1CCN(c2ccccc2F)CC1 | -5% | 12%
CCOc1ccc(NC(=O)c2ccc3nc(C(C)C)oc3c2)cc1 | -12% | ?
CN1CC(=O)Nc2cc(C(=O)O)ccc21 | -2% | -11%
COc1ccc(NC(=O)C(c2ccc(C)cc2)N(C)C(=O)Cc2cccs2)cc1 (stereo not drawn) | 21% | 2%
CCCOc1ccc(CN2C(=O)C(=O)c3cccc(C)c32)cc1 | 11µM* | ?
O=C(Cn1ccc2cc(S(=O)(=O)N3CCCCCC3)ccc21)NCCc1ccc(Cl)cc1 | ? | ?
COc1cccc(CNC(=O)Cn2cc3c(n2)-c2c(oc(C(=O)N4CCCC4)c2C)CC3)c1OC | ? | -23%
Cc1ccccc1NC(=O)Cn1c(=O)n(CC2CCC(C(=O)NCCc3ccccc3)CC2)c(=O)c2ccccc21 (stereo not drawn) | ? | -7%
Cc1cc(NC(=O)CSc2nc(-c3ccccc3F)nc3c2c(=O)n(C)c(=O)n3C)no1 | ? | -8%
CC(C)c1ccc(C2NC(=O)c3c(sc4c3CCN(C)C4)N2)cc1 (stereo not drawn) | ? | -5%
O=C(NCCc1csc(-c2ccc(F)cc2)n1)C(=O)Nc1ccc(Cl)cc1 | -8% | -5%
CCCCNC(=O)Nc1ccc2c(c1)N(C)C(=O)c1ccccc1S2 | -8% | ?
CCS(=O)(=O)c1ncc(Cl)c(C(=O)Nc2ccccc2)n1 | 2.2µM* | ?
Cc1ccc(OC(=O)c2snnc2C)cc1C | -12% | -3%
